# Screening results: PubChem, National Center for Advancing Translational Sciences (NCATS)
# miR-21 FLuc – qHTS Assay for Modulators of miRNAs and/orActivators of miR-21 | 340,000 tested, under 10 active | Potency, µM (titrated, usually from 38.3 µM), inactives show at the top dose reporter change, positive = more light | HeLa miR-21 FLuc reporter, luciferase, 48 h; active = well fitted rising curve with a large enough effect; inconclusive = small, poorly fitted or top-dose-only effect; inactive = no such curve, though single readings can be large or run the other way;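 also: % of control where 0% means no effect; miR-21 action dims this reporter so a rising signal means less miR-21 action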
#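 HeLa cells endogenously expressing miR-21, stably carrying CMV-driven firefly luciferase with a downstream miR-21 binding site, 2000 cells/well. Titrations up to approximately 40 uM, 48 hours; luciferase luminescence read.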
# Rango release inh – qHTS Assay for Inhibitors of RanGTP induced Rango (Ran-regulated importin-beta cargo) - Importin beta complex dissociation; Biochemical FRET Rango-importin beta, RanGTP-induced dissociation; Potency, µM (titrated, usually from 46.1 µM), for inactives: at the top dose activity change, negative = inhibition; 0.071% of 340,000 active; active means falling FRET ratio curve, often poorly fitted, with flat reads before Ran was added; inconclusive means other falling curves, or compound fluorescence or quenching; inactive means flat or rising ratio curve;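 also: potency is read from the fitted curve at half-maximal effect; % of control where 0% means no effect; nearly all actives have a fitted effect of over 45% in size; -100% = wells without RanGTP and RCC1; the record marks most hits as doubtful in a second field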
#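 Recombinant Rango FRET biosensor (EYFP–snurportin 1 IBB–cerulean CFP10) at 0.1 uM premixed with 0.25 uM importin beta in PBS, 1 mM DTT, 0.02% Tween-20, 0.1% BSA. Compound added 5 min; RanGTP-RCC1 (0.6 uM Ran, 2 mM GTP, 0.2 uM RCC1) then triggers release, read at 45 min.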
# Rango complex inh – qHTS Assay for Inhibitors of Rango (Ran-regulated importin-beta cargo) - Importin beta complex formation; Potency, µM (series often up to 92.2 µM), for the others: at the highest dose inhibition of complex formation; Importin subunit beta-1 (Homo sapiens), Q14974; Rango CFP/YFP FRET sensor + importin beta, 45 min; 0.031% of 340,000 active; active = rising FRET ratio curve, often small or poorly fitted; inconclusive = mostly compound fluorescence or quenching in the first reads; inactive = flat curves in all reads;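 also: potency is read from the fitted curve at half-maximal effect; 0% = DMSO wells and 100% = buffer wells lacking importin beta; nearly all actives have a fitted effect of over 15% in size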
# Target sequence (Q14974 whole entry, looked up): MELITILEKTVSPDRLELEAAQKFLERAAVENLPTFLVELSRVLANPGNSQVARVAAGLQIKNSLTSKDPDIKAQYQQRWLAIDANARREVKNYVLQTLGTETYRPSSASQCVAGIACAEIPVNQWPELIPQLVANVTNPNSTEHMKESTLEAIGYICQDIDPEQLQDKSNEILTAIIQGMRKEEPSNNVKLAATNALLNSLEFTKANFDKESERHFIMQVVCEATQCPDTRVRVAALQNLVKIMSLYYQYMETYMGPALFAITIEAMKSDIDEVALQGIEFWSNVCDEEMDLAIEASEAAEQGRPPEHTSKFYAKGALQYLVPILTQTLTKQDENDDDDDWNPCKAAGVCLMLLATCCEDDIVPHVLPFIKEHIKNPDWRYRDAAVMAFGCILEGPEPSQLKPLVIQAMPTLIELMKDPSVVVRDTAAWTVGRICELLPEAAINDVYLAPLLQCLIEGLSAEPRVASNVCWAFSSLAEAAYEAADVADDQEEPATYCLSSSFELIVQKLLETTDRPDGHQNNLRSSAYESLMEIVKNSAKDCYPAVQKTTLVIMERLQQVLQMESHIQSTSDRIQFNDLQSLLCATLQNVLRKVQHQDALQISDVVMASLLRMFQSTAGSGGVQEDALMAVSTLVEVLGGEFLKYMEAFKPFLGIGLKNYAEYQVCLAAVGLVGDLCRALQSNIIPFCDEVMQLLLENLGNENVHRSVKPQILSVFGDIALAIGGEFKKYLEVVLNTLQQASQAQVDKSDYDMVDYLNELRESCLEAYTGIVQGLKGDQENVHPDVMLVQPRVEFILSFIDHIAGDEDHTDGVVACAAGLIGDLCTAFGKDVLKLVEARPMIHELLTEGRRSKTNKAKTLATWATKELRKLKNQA
#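 Inhibition scored from the CFP 486 nm/YFP 530 nm FRET ratio 45 min after adding 0.125 microM importin beta to 50 nM Rango biosensor preincubated 5 min with compound (room temperature, PBS with DTT, Tween-20, BSA). No-importin wells as positive control.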
# GLA inh pH 4.5 – qHTS Assay for Inhibitors of Human alpha-Galactosidase at pH 4.5 | purified enzyme, 4-MU-alpha-Gal fluorescence, pH 4.5 | activity change, negative = inhibition, % at 105 µM | Alpha-galactosidase A (Homo sapiens), P06280 | AID 1467, 2008 | 230,000 tested, under 10 active; inconclusive = small, poorly fitted or top-dose-only inhibition, or a rising curve; inactive = flat fitted curve, though single readings scatter; no compound was filed as active;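 also: 0% = full activity with enzyme and -100% = basal without enzyme; dose as in the result columns while the protocol names 77 µM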
# * = called active by the depositor; ? = inconclusive; . = not tested or not shown; & = joins results of further samples. Only part of the results is shown (hit frequency here may not be typical).
# Start of the data: the first 11 compounds as a preview:
# Fields – miR-21 FLuc, Rango release inh, Rango complex inh, GLA inh pH 4.5
COc1cc(NS(=O)(=O)c2ccc(NC(=O)NC3CCCCC3)cc2)nc(OC)n1
  -5%, 3%, -2.6%, 4
COc1ccc(CNS(=O)(=O)NCc2ccccc2)cc1OC
  0%, -10%, -0.7%, 3
O=C(O)C1CCCN1C1=NS(=O)(=O)c2ccccc21 (stereo not given)
  6%, -16%, -0.3%, .
O=C1NC[C@H](c2ccccc2)N(CCC23CC4CC(CC(C4)C2)C3)C1=O
  ., 4%, -0.4%, .
S=C(NCc1cccnc1)Nc1ccc(Oc2ccccc2)cc1
  12%, -12%, -2.6%, -1
Cc1ccc(Nc2nnns2)cc1C
  0%, 0%, -0.8%, -2
Cc1ccccc1-c1nc(CN2CCC(C(=O)NCc3cccnc3)CC2)c(C)o1
  0%, -9%, 2.6%, -2
CCOC(=O)CNNC(=O)Nc1ccc(Cl)c(Cl)c1
  -9%, 0%, 0.5%, 3
CCOc1ccc(/C(O)=C2/C(=O)C(=O)N(CCCN3CCOCC3)C2c2ccc(C)cc2)cc1C (stereo not given)
  -7%, 13%, 3.1%, .
Cc1cc(C(F)(F)F)nn1CC(=O)NCC1CCCO1 (stereo not given)
  -1%, 0%, -0.7%, -2
COc1ccc(-c2nc3ccccc3c(=O)n2CCN2CCOCC2)cc1
  -16%, -6%, -0.1%, -3

# This part in full, repeating the preview:
# Fields – miR-21 FLuc, Rango release inh, Rango complex inh, GLA inh pH 4.5
COc1cc(NS(=O)(=O)c2ccc(NC(=O)NC3CCCCC3)cc2)nc(OC)n1
  -5%, 3%, -2.6%, 4
COc1ccc(CNS(=O)(=O)NCc2ccccc2)cc1OC
  0%, -10%, -0.7%, 3
O=C(O)C1CCCN1C1=NS(=O)(=O)c2ccccc21 (stereo not given)
  6%, -16%, -0.3%, .
O=C1NC[C@H](c2ccccc2)N(CCC23CC4CC(CC(C4)C2)C3)C1=O
  ., 4%, -0.4%, .
S=C(NCc1cccnc1)Nc1ccc(Oc2ccccc2)cc1
  12%, -12%, -2.6%, -1
Cc1ccc(Nc2nnns2)cc1C
  0%, 0%, -0.8%, -2
Cc1ccccc1-c1nc(CN2CCC(C(=O)NCc3cccnc3)CC2)c(C)o1
  0%, -9%, 2.6%, -2
CCOC(=O)CNNC(=O)Nc1ccc(Cl)c(Cl)c1
  -9%, 0%, 0.5%, 3
CCOc1ccc(/C(O)=C2/C(=O)C(=O)N(CCCN3CCOCC3)C2c2ccc(C)cc2)cc1C (stereo not given)
  -7%, 13%, 3.1%, .
Cc1cc(C(F)(F)F)nn1CC(=O)NCC1CCCO1 (stereo not given)
  -1%, 0%, -0.7%, -2
COc1ccc(-c2nc3ccccc3c(=O)n2CCN2CCOCC2)cc1
  -16%, -6%, -0.1%, -3
CCCC(C(=O)Nc1ccc(S(=O)(=O)N2CCOCC2)cc1)c1ccccc1 (stereo not given)
  ., 18%, -3.1%, .
COc1ccc(S(=O)(=O)N2CCN(C(=O)c3cnc(C)cn3)CC2)cc1
  1%, -10%, -0.4%, -8
CCN(CC)S(=O)(=O)c1cccc(C(=O)N[C@H](C(=O)OCC(=O)NC(=O)NC)C(C)C)c1
  -4%, -6%, 0.3%, 4
Cc1ccc(Sc2ncnc3onc(C)c23)cc1
  16%, 8%, -2.0%, -1
O=c1c([N+](=O)[O-])c(NC2CCCCC2)c2ccccc2n1-c1ccccc1
  -6%, 1%, -5.3%, 0
Fc1ccc(-c2nc(-c3cnccn3)no2)c(Cl)c1
  -60%, 19%, 0.5%, -12
CCOc1ccccc1OCC(=O)Nc1cc2c(cc1C(=O)O)OCCCO2
  4%, 25%, -3.0%, .
O=C(Nc1ccn(Cc2ccccc2F)n1)c1ccc(COc2cccc(Br)c2)cc1
  -8%, 5%, -1.0%, 1
O=C(O)c1cc(S(=O)(=O)Nc2ccccc2C(=O)O)ccc1O
  -1%, 5%, 0.8%, -7
CCOc1ccc(-c2cnc3n2CCC3)cc1
  -8%, -21%, 2.9%, 0
COCCn1c(C)cc(O)c(C(=O)Nc2cccc(Cl)c2)c1=O
  1%, 0%, 4.9%, .
CCOC(=O)C1=NOC(Cn2cc(C(C)=O)c(=O)[nH]c2=O)C1 (stereo not given)
  -1%, 4%, -1.6%, 3
COc1ccc(CNc2cccc(C)n2)c(O)c1
  0%, 0%, 1.6%, .
COc1ccccc1C(=O)C1CCCN(C(=O)c2cnn(C(C)C)c2)C1 (stereo not given)
  -5%, -9%, 1.0%, .
CCN(c1ccccc1)S(=O)(=O)c1ccc(Cl)c(NC(=O)CSc2ncn[nH]2)c1
  2%, 6%, -3.9%, -4
CCCCn1c(N)c(N(CCC(C)C)C(=O)c2[nH]c(C)c(C(=O)OCC)c2C)c(=O)[nH]c1=O
  ., -5%, -1.2%, .
CCCCN(Cc1ccccc1)S(=O)(=O)c1cc2c(cc1Br)CC(C)N2C(C)=O (stereo not given)
  ., -5%, -0.3%, .
CS(=O)(=O)Nc1ccc(C(=O)N2CCc3ccccc3C2)cc1
  -5%, -3%, -4.0%, -1
COc1ccc2c(c1)c1nc3ccccc3nc1n2CC(=O)OC(C)C
  1%, -11%, 7.1%, -2
CCCC(=O)N(Cc1cc2ccccc2[nH]c1=O)c1ccccc1OC
  -7%, 13%, -2.3%, 5
COc1ccc(N2CCN(C(c3nnnn3C3CCCC3)C(C)C)CC2)cc1 (stereo not given)
  -5%, 17%, 4.6%, 4
COc1ccc(NC(=O)c2nc3nccc(C)n3n2)cn1
  -37%, -7%, -2.0%, 11
CCn1ncc(C(=O)Nc2ccc(S(=O)(=O)N3CCCC3)cc2)c1C
  1%, 14%, 2.4%, -2
COc1cc2c(cc1OC)CN(C(C)C(=O)N1CCc3ccccc31)CC2 (stereo not given)
  27%, -7%, 2.4%, 1
COc1ccc(NC(=O)Cc2nnc(N)s2)cc1
  -9%, 0%, -1.6%, 8
COC(=O)c1sc(-c2ccc(Cl)cc2)cc1NC(=O)/C=C/C(=O)O
  -17%, -3%, 0.0%, 1
Cc1cccc(NS(=O)(=O)c2c(C(=O)N3CCOCC3)c(C)n(C)c2C)c1C
  -1%, 18%, -0.2%, .
COc1cc(Br)c(CC(=O)NC2CC2)cc1OC
  5%, 4%, 0.5%, .
COCCCn1c(-c2ccc(OC)cc2)nc2nc3ccccc3nc21
  -20%, ., ., 11
COCCNc1nc(C)cc(-c2cc(C(=O)NCc3ccccc3)on2)n1
  -1%, ?, -0.2%, 4
Cc1cc(Br)ccc1OCCCCN1CCC(C)CC1
  -4%, 9%, 0.8%, -7
O=C(O)c1ccccc1C(=O)N1CCc2c([nH]c3ccccc23)C1C(F)(F)F (stereo not given)
  0%, -2%, 0.7%, 5
COc1ccc(-n2nc3c(c2NC(=O)c2ccc(Br)o2)CS(=O)(=O)C3)cc1
  -1%, 13%, -2.1%, .
C[C@@H]1COC(=O)[C@@H](CC(=O)OC(C)(C)C)C/C=C\C[C@@H](CC(=O)N(CCO)Cc2ccccc2)C(=O)N1
  ., 1%, 1.4%, .
Nc1nc(N)nc(-c2ccc(Cl)c(Cl)c2)n1
  ., -5%, 2.1%, .
CCOC(=O)c1c(CN2CCCCC2)oc2ccc(OC)cc12
  -11%&-12%, 1%&0%, 4.1%&-2.3%, 1&1
CC1CC(C)CN(C(=O)Cn2c(-c3nonc3N)nc3ccccc32)C1 (stereo not given)
  -3%, 5%, -2.8%, -30
CCNC(=O)NC(=O)C(C)OC(=O)c1ccc(-n2nc(SC)sc2=S)cc1 (stereo not given)
  -10%, 0%, -2.5%, -2
COc1ccc(C2CC(C(F)(F)F)n3nc(C(=O)NCc4c(C)nn(C)c4C)c(Cl)c3N2)cc1 (stereo not given)
  22%, 11%, 0.2%, -8
COC(=O)C1=C(C)N(c2ccc(C)c(C)c2)/C(=C/c2cccs2)C1=O
  1%, 8%, ?, -6
COc1ccc(C(c2nnnn2C2CCCCC2)N2CCN(C)CC2)c(OC)c1 (stereo not given)
  -6%, -10%, 2.4%, -4
COc1ccccc1C(=O)NN1C(=O)C2C3C=CC(O3)C2C1=O (stereo not given)
  -1%, -1%, 5.0%, 2
COc1ccccc1C1c2c(C)nn(-c3ccccc3)c2NC(=O)C1NC(=O)c1ccccc1 (stereo not given)
  0%, -8%, 0.3%, -3
CC(C)NC(=O)CSc1c2c(nc3ccccc13)CCCC2
  13%, -13%, -4.3%, 7
CC(Oc1cccc(Cl)c1)C(=O)Nc1ccccc1N1CCCC1 (stereo not given)
  ., 4%, 0.5%, .
O=C(Nc1ccc(S(=O)(=O)Nc2cnc3ccccc3n2)cc1)c1ccc(Cl)c([N+](=O)[O-])c1
  -9%, 3%, 7.5%, .
CCOc1ccc(/C=C2/SC(=S)N(C(C(=O)O)c3ccccc3)C2=O)cc1OCC (stereo not given)
  1%, -4%, ?, -8
COc1ccc(S(=O)(=O)N2CCN(C)CC2)cc1C(=O)N1CCCCC1
  3%, 4%, -1.2%, .
CC(OC(=O)c1cnc(Cl)c(Cl)c1)C(=O)NCc1ccccc1 (stereo not given)
  ., 3%, -2.7%, .

# Next section
# Fields – miR-21 FLuc, Rango release inh, Rango complex inh, GLA inh pH 4.5
CCCCC(=O)NC(c1ccccc1Cl)c1ccc2cccnc2c1O (stereo not given)
  20%, -11%, -2.4%, .
Cc1cccc(/C=C(\C#N)C(=O)Nc2ccccn2)c1
  -5%, ?, ?, .
CCc1cccc(C)c1NC(=O)COC(=O)c1c2c(nc3ccccc13)/C(=C\c1cccs1)CCC2
  21%, ?, ?, -3
CCn1c(=O)c(C(=O)Nc2ccc(C)cc2C)c(O)c2ccccc21
  -1%, -9%, 1.2%, .
Cc1cc(C)nc(N(C#N)S(=O)(=O)c2ccccc2)n1
  -1%, -13%, 2.1%, -14
N#Cc1c(NC(=O)C2CCCO2)sc2c1CCCCC2 (stereo not given)
  -57%, 0%, -4.9%, 2
COc1ccc(NC(=O)CN(C)CCOc2ccc(Cl)cc2)cc1OC
  -9%, -3%, -0.2%, .
O=C(CSc1ncc(S(=O)(=O)c2ccccc2)c(=O)[nH]1)Nc1ccccc1Cl
  2%, -1%, 0.1%, 4
NS(=O)(=O)c1ccc(CCNC(=O)CNC(=O)c2ccc(F)cc2)cc1
  2%, 1%, -4.6%, .
CN(CC(=O)Nc1ccccc1Cl)CC(=O)Nc1sc2c(c1C(N)=O)CCC2
  ., 1%, -2.6%, .
O=C(NCCc1ccccc1F)C1CC(=O)N(c2ccccc2)C1 (stereo not given)
  0%, -28%, 2.9%, .
Cn1c(SCC#N)nnc1-c1cnccn1
  -5%, 4%, 2.5%, 0
Cc1ccc(Nc2cc(Cl)nc(N)n2)c([N+](=O)[O-])c1
  ., 0%, ?, .
COc1ccc(OC)c(NS(=O)(=O)c2ccc(Cl)nc2)c1
  -3%, 21%, -1.6%, 2
O=C(c1ccc2c(c1)OCO2)N1CCNc2ccccc2C1
  -16%, -2%, -6.0%, -2
Cc1c(C(=O)N(CCc2ccccc2)Cc2ccccc2)cccc1[N+](=O)[O-]
  2%, 1%, 1.2%, .
COc1cc(N/C(=N/S(=O)(=O)c2ccccc2)c2ccccc2)ncn1
  -46%, -2%, -0.1%, 20
Oc1ccccc1-c1nc(NCC2CCCO2)c2ccccc2n1 (stereo not given)
  13%, 2%, ?, -6
COc1ccc(CNC(=O)CSc2nnc3c(n2)[nH]c2ccc(F)cc23)cc1
  0%, 8%, 5.0%, .
